Screening results from PubChem BioAssay.
GIV-Gai inh: blocks GIV peptide binding to rat Galpha-i3; P08753; actives 0.42% (n = 210,000); Galpha-i3/FITC-GIV peptide fluorescence polarization, 90 min; active compounds read low; scaled: aluminum fluoride 0%, vehicle 100%; percent of control (FP), % (concentration not given with the values);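 active = replicate mean at 85% of control or lower, very high polarization wells dropped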;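 also: wells of about 15 µL received 100 nL stock; the first replicate is given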
Target sequence (P08753 whole entry, looked up): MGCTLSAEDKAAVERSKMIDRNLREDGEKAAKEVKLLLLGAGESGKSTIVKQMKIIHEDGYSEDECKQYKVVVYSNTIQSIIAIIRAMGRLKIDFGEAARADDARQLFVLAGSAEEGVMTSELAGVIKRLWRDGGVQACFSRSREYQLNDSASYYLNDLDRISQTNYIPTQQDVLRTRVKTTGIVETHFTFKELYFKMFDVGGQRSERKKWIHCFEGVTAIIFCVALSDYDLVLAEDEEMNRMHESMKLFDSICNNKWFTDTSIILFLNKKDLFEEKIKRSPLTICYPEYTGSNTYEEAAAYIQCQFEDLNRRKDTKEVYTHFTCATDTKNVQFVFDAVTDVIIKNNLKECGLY
HCMV NEC inh: inhibitors of HCMV UL50-UL53 nuclear egress complex interaction; HTRF UL50-UL53 interaction, normalized percent inhibition; inhibition, % (concentration not given with the values); actives 0.15% (n = 190,000);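 active = both replicates at 50% or more, plus weaker picks with an unusually low signal ratio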;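 also: stock transfer was 100 nL into about 20 µL; 0% = negative control wells and 100% = wells with untagged competitor protein; inactives centre near -12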
Sa growth inh: S. aureus growth inhibition | S. aureus RN4220 growth, OD600, 20 h, 42 °C; active compounds read low | relative growth, % (test concentration not listed) | actives 0.53% (n = 170,000);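 active = growth at 42 °C up to 50% and 20 or more points under that at 30 °C, or under 10% at both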;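 also: 300 nL library stock went into each well; scaled to the means of positive and negative controls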
Sa growth inh second temp: further read-out of Sa growth inh, marked with its call; relative growth, %; measured here: growth at 30 °C;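 optical density after 20 h as mean of two plates; 100% = untreated growth and lower means inhibition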
Numbers without * were called inactive; / = not tested or not shown; & = joins results of further samples. This is a random part of the collection; 0.79% or so of the library scored in one or more.

SMILES	GIV-Gai inh	HCMV NEC inh	Sa growth inh	Sa growth inh second temp
Cc1ccc(C=Nc2ccc(Cl)cc2)o1	191	-3	92	58
Cc1nn2c(=O)cc(COC(=O)c3ccc(F)cc3)nc2s1	103	/	86	94
CCOc1ccc(NC(=O)Cn2c3c(c(-c4ccccc4)cc2=O)CCCC3)cc1	116	/	84	86
COC(=O)C(NC(=O)c1ccc(Cl)cc1Cl)C(C)C (stereo not given)	98	-14	122	105
CC(C)(C)C1CCCCC1NC(=O)c1ccncc1 (stereo not given)	109	4	94	101
O=C(N=Nc1c(O)n(CN2CCOCC2)c2ccc(Br)cc12)c1ccc(Br)cc1	105	-16	95	88
CC1CCCC(C)N1C(=O)COC(=O)CN1C(=O)c2ccccc2C1=O (stereo not given)	/	-46	98	91
Cc1cc(C)nc(NS(=O)(=O)c2ccc(NC(=O)COc3ccc4ccccc4c3)cc2)n1	103	-10	/	/
O=C(O)CNC(=O)/C=C/c1ccccc1	100	-2	100	80
CCN(CC)C(=O)c1cnc(-c2ccccc2)nc1C1CCNCC1	107	4	108	97
Cc1noc(C)c1CSCC(=O)O	/	-2	87	94
CC1CC(C)CN(C(=O)c2ccc(C(F)(F)F)cc2)C1 (stereo not given)	/	-8	87	85
CCOC(=O)C1Cc2c([nH]c3ccccc23)CN1 (stereo not given)	98	0	90	81
CC(=O)NC(C)c1nc2ccccc2n1C (stereo not given)	105	2&-16	/	/
CN(C)/C=N/C(=S)N1CCOCC1	107	-30	112	89
Cc1ccc(-c2nn(Cc3ccccc3)cc2C(=O)N2CCC2)cc1	/	1	95	100
CCCc1cc(=O)n2[nH]cnc2n1	97	/	106	92
Cc1ccccc1OCc1nnc(SCCC(=O)O)n1Cc1ccccc1	/	-5	97	92
O=C(c1cc(Cl)c(O)c(Cl)c1)N1CCc2ccccc2C1	/	-24	95	76
CCCN(CCC)S(=O)(=O)c1ccc(C(=O)NC(=S)Nc2ccc(F)cc2)cc1	104	-46	84	88
COc1ccc(N2CCN(S(=O)(=O)c3ccc(-c4cc(C(F)(F)F)on4)s3)CC2)cc1	100	/	93	98
CC(=O)Nc1sc2c(c1C#N)CCN(C(C)=O)C2	95	-17	97	83
COc1cc(-c2noc(-c3ccccc3)n2)ccc1OCC(=O)Nc1ccc(C)cc1	109	-1	/	/
O=C(CSc1ccccn1)c1ccc2c(c1)OCO2	/	0	100	80
CCOC(=O)c1cccc(-c2ccc(/C=C3\C(=O)N(c4cccc(C(=O)O)c4)N=C3C)o2)c1	93	-27	/	/

Six compounds already listed, arranged by length of the SMILES, smallest number first:
SMILES	GIV-Gai inh	HCMV NEC inh	Sa growth inh	Sa growth inh second temp
CN(C)/C=N/C(=S)N1CCOCC1	107	-30	112	89
CC(=O)NC(C)c1nc2ccccc2n1C (stereo not given)	105	2&-16	/	/
O=C(O)CNC(=O)/C=C/c1ccccc1	100	-2	100	80
O=C(CSc1ccccn1)c1ccc2c(c1)OCO2	/	0	100	80
COc1cc(-c2noc(-c3ccccc3)n2)ccc1OCC(=O)Nc1ccc(C)cc1	109	-1	/	/
O=C(N=Nc1c(O)n(CN2CCOCC2)c2ccc(Br)cc12)c1ccc(Br)cc1	105	-16	95	88

More results.
SMILES	GIV-Gai inh	HCMV NEC inh	Sa growth inh	Sa growth inh second temp
COc1cccc(N2CC(NC(=O)C3CC3)CC2=O)c1 (stereo not given)	99&106	/	130	85
Cc1nc2c(c(C)nn2C)c(C)c1CCC(=O)NC1CCCCC1	107	3	95	94
CC(C)CNC(=O)N1CCC(C)(C(=O)NCc2ccc3c(c2)OCO3)CC1	106	-18	/	/
COc1ccc(N2CCN(C(=O)C(C)n3c(=O)cc(C(F)(F)F)c4c(C)nn(C)c43)CC2)cc1 (stereo not given)	100	/	96	89
Cc1cc(C(F)(F)Sc2ccc(Cl)cc2)n[nH]1	104	0	32	22
COCC(C)n1c(C)cc(C(=O)COC(=O)c2c(C)nn(-c3ccccc3)c2C)c1C (stereo not given)	/	-18	122	99
CCc1nnc(NC(=O)C2CCCN2C(=O)Nc2ccccc2)s1 (stereo not given)	100	-12	90	93
CC1CCc2nc(NC(=O)c3ccc(Cc4ccccc4)cc3)sc2C1 (stereo not given)	100	/	94	75
Cc1onc(-c2ccccc2)c1CNC(=O)c1cnn(-c2ccccc2)c1C	102	-2	100	94
COc1cc(Cl)ccc1S(=O)(=O)n1nnc2ccccc21	98	-15	107	84
COc1ccc(OC)c(NS(=O)(=O)c2ccc(Br)s2)c1	111	-22	96	82
CC(/C=N/O)Cc1ccc2c(c1)OCO2 (stereo not given)	117	-9	101	78
COc1ccc(/C=C2\SC(=S)N(CCCC(=O)O)C2=O)cc1OC	103	/	105	92
Cc1ccc(C(=O)NC(C)C)cc1	/	-20	83	87
CCOC(=O)c1cc(-c2ccc(S(=O)(=O)Nc3cccc(SC)c3)s2)on1	107	-21	102	92
NNC(=O)c1c(O)c2cccc3c2n(c1=O)CCC3	99	-21	67	34
CCC(=O)Oc1ccc(C(=O)Nc2cc(C(=O)O)cc(C(=O)O)c2)cc1	88	/	110	82
Cc1cc(=O)oc2cc(OC3OC(CO)C(O)C(O)C3O)ccc12 (stereo not given)	/	-1&-14	78	110
CCCNC(=O)CCn1c(=O)c2cccn2c2cccnc21	104	/	87	85
CCOC(=O)COc1ccc(C2C(C#N)=C(C)NC(C)=C2C#N)cc1	103	-8	102	88
CSc1ccc(NC(=O)N2C3CCC2CC(O)(c2cccnc2)C3)cc1 (stereo not given)	102	-16	102	73
Cc1ccc(Sc2c(C)c3cc4c(cc3[nH]c2=O)OCO4)cc1	95	/	113	84
Cc1sc2nc(CCl)[nH]c(=O)c2c1C	/	-20	118	86
Cc1cc(=O)c2cccc(C(=O)Nc3ccccc3C)c2[nH]1	102	-5	/	/
CCCN1CCN(CCNC(=O)Nc2ccc(OC)c(OC)c2)CC1	105	-36	93	84
Other records:
SMILES	GIV-Gai inh	HCMV NEC inh	Sa growth inh	Sa growth inh second temp
CN(CC(=O)Nc1ccc2c(c1)OCCCO2)C1=NS(=O)(=O)c2ccccc21	/	-28	87	84
CC(C)CCNC(=O)c1ccc(S(=O)(=O)N2CCCC2)cc1	/	8	92	87
CCC1C(O)=C(c2ccccn2)C(=N)N1c1ccccc1 (stereo not given)	/	-32	106	90
CC(=O)N(Cc1nnc2c3ccccc3c(C)nn12)c1ccccc1	96	/	84	87
CC(C)NC(=O)Cc1csc(NC(=O)C2CC2)n1	103	-16	/	/
Cc1c(C(=O)NC2=NCCS2)oc2ccccc12	108	-15	123	109
CCOC(=O)COc1nc(-c2ccccc2)cc(-c2ccccc2)c1C#N	106	-38	97	84
COc1ccc(OC)c(S(=O)(=O)NC2CCS(=O)(=O)C2)c1 (stereo not given)	101	-12	84	86
CCCc1nc2ccccc2nc1C	115	-16	85	69
O=C(CN1CCc2ccccc21)NCc1ccc2c(c1)OCO2	/	-7	101	93
Cc1ccccc1NC(=O)Cc1nc(CSc2nnc(-c3ccccc3)n2C)cs1	/	-10	100	85
CC1Cc2ccccc2N1Cc1nnc(-c2ccccc2)o1 (stereo not given)	104	-11	107	77
CCOc1ccc(N(CC(=O)N2CCN(c3ccccc3OC)CC2)S(C)(=O)=O)cc1	99	-15	/	/
CC(Oc1ccc(F)cc1)C(=O)O (stereo not given)	101	-33	85	90
CC1CCN(C(=O)Cc2csc(NC(=O)c3ccccc3)n2)CC1	108	-24	/	/
CCOC(=O)c1cc(-c2ccccc2)n(CCCC(=O)Nc2ccc(C)cc2Cl)c1C	99	/	86	86
CCOC(=O)c1csc(NC(=O)CSc2cc(Cl)ccc2Cl)n1	98	-7	119	95
COc1ccc(CCNC(=O)c2c(Nc3ccccc3C)sc(C(=O)c3ccccc3)c2N)cc1OC	103	/	110	90
CCN(CC)C(=O)CN1C(=O)COc2ccc(S(=O)(=O)N3CCOCC3)cc21	106&99	-12&-22	96	89
CN(C)S(=O)(=O)c1ccc(C(=O)N2CCC(c3nc4ccccc4o3)CC2)cc1	/	-30	106	91
N#C/C(=C/c1ccccc1Cl)c1nc2ccccc2c(=O)[nH]1	106	-29	102	86
COc1cc(Br)cc(CNc2cc(C)on2)c1O	/	-8	85	69
Cc1ccc(S(=O)(=O)N2CCC(C(=O)NC3CC3)CC2)cc1	100	-20	102	87
OCCNc1nc(Cl)nc(N2CCC(Cc3ccccc3)CC2)n1	99	-7	/	/
O=S(=O)(/C=C/c1ccccc1)N1CCNCC1	/	-21	93	89

Sorted by value in Sa growth inh second temp (lowest first): some entries from above
compound,GIV-Gai inh,Sa growth inh second temp
CCCc1nc2ccccc2nc1C,115,69
Cc1ccc(S(=O)(=O)N2CCC(C(=O)NC3CC3)CC2)cc1,100,87
CCC1C(O)=C(c2ccccn2)C(=N)N1c1ccccc1 (stereo not given),/,90

An excerpt of these results, field by field.
SMILES: COc1ccc(N2CCN(C(=O)C(C)n3c(=O)cc(C(F)(F)F)c4c(C)nn(C)c43)CC2)cc1 (stereo not given)
  GIV-Gai inh: 100 | HCMV NEC inh: / | Sa growth inh: 96 | Sa growth inh second temp: 89
SMILES: CCC(=O)Oc1ccc(C(=O)Nc2cc(C(=O)O)cc(C(=O)O)c2)cc1
  GIV-Gai inh: 88 | HCMV NEC inh: / | Sa growth inh: 110 | Sa growth inh second temp: 82

(next part)
SMILES	GIV-Gai inh	HCMV NEC inh	Sa growth inh	Sa growth inh second temp
COc1ccccc1OC(C)C(=O)O (stereo not given)	99	-2	97	93
Cc1cc2nc(-c3cccc(NC(=O)c4cccc5ccccc45)c3)oc2cc1C	110	-28	105	88
O=C(NC(=S)Nc1ccccc1CO)C1CCCCC1	/	-16	77	82
C=C(C)CSc1nnc(C)c(=O)[nH]1	99	14	103	97
COC(=O)C1=CN(C)C=C(C(=O)OC)C1c1ccc2c(c1)OCO2	97	-3	98	101
O=C(OCc1c(Cl)cccc1Cl)c1ccc2ccccc2n1	/	-27	113	90
CCOC(=O)C1=C(CS(=O)(=O)c2ccc(C(C)(C)C)cc2)NC(=O)NC1c1cccc(OC)c1 (stereo not given)	107	-2	101	98
Cc1ccc(COC(=O)c2[nH]c3c(c2C)C(=O)CC(c2ccc(Cl)cc2)C3)cc1 (stereo not given)	106	-8	102	95
NS(=O)(=O)c1ccc(-n2ncc(Cl)c(Cl)c2=O)cc1	/	-61	54	75
O=c1c2ccccc2nc(-c2ccccc2)n1Nc1ccc(F)cc1F	/	-4	103	102
CC(=O)N1CCN(c2ccc(S(=O)(=O)N3CCCCC3)cn2)CC1	/	3	96	94
Cc1cccc(C(=O)n2nc(-c3cccnc3)nc2NCc2ccc(F)cc2)c1	104	-27	105	91
Cc1ccccc1Cn1c(COc2ccc(Cl)cc2)nc2ccccc21	105	6	99	97
O=C(NC1CCN(Cc2ccccc2)CC1)c1ccc2c(=O)n3c(nc2c1)CCCC3	107	-6	/	/
O=S(=O)(NC1CCN(Cc2ccccc2)CC1)c1cccc(C(F)(F)F)c1	106	-2	120	86
CCOc1ccc(NC(=O)Cn2c(=O)c(CNc3ccc(CC)cc3)cc3cc4c(cc32)OCO4)cc1	101	/	97	86
CCN(CC)C(=O)c1sc2c(c1C)c(=O)n(-c1ccccc1)c(=O)n2Cc1cc(=O)n2ccccc2n1	100	/	95	87
COc1ccc(NC(=O)c2nnc(CCCC(=O)N3CCN(c4ccccn4)CC3)s2)cc1	101	-24	/	/
CCCC(=O)NCc1nc2cccnc2n1Cc1ccc(F)cc1	109	/	109	92
COc1cccc(CNc2ncc(-c3ccc(Br)cc3)n2C)c1	103	/	94	45
CCOC(=O)c1c(C)[nH]c(C(=O)COC(=O)c2ccccc2)c1C	/	15	91	89
COc1cccc(-n2c(SCC(=O)N3CCCCC3C)nc3ccccc3c2=O)c1 (stereo not given)	/	-8	76	105
CC1CCN(S(=O)(=O)c2ccc3c(ccn3CCC(=O)NC3CCCCC3)c2)CC1	102	1	/	/
CCOc1ccc(CNC(=O)c2cccc(NC(=O)N3CCSc4ncccc43)c2)cc1	110	/	119	86
N#Cc1ccc(OCC(=O)OCC(=O)N2CCCCC2)cc1	/	-8	99	88
More results follow.
SMILES	GIV-Gai inh	HCMV NEC inh	Sa growth inh	Sa growth inh second temp
O=C(C1CCN(c2ccc(-c3cccs3)nn2)CC1)N1CCN(Cc2ccc3c(c2)OCO3)CC1	98	-18	112	92
CCCOC(=O)C1=C(C)N(C)C(=O)NC1c1cc(Br)c(O)c(OC)c1 (stereo not given)	102	-2	/	/
CCOCCCn1c(=N)c(C(=O)NC2CCCC2)cc2c(=O)n3cc(C)ccc3nc21	104	-52	101	84
COC(=O)c1ccc(Cl)cc1NC(=O)N1Cc2cccn2-c2ccccc21	101	-4	/	/
Cc1cc(C)c(C(=O)COC(=O)c2ccc(N(C)C)cc2)c(C)c1	/	7	104	92
COc1ccc(CN2C(=O)C(C)SC2c2cccnc2)cc1 (stereo not given)	104	1	112	102
C1CN(c2nsnc2OCCOc2nsnc2N2CCOCC2)CCO1	/	-19	69	89
COC(=O)c1cc2nc(-c3ccc(F)cc3)cc(C(F)(F)F)n2n1	/	-10	95	68
Cc1cc(C)nc(SCCC(=O)N(C)C)n1	104	-12	122	86
COC(=O)c1c(C)oc2cc(Br)c(OCC(=O)OCc3ccccc3)cc12	102	6	/	/
COc1cccc(-n2c(SCC(=O)N3CC(C)CC(C)C3)nc3n[nH]c(C)c3c2=N)c1 (stereo not given)	/	-6	92	73
